D2 ag = activates the human D2 dopamine receptor | 360,000 tested, 0.084% active | DiscoveRx PathHunter D2 beta-arrestin, luminescence, 90 min; 100% = 57 uM dopamine signal | activation, % (test concentration not listed) | P14416; in the data active = activation above about 40%; inconclusive = about 15% to 40%; inactive = below about 15%; further: compound concentration not given in the record; the text of the record calls up to 30% inactive
Target sequence (P14416 whole entry, looked up): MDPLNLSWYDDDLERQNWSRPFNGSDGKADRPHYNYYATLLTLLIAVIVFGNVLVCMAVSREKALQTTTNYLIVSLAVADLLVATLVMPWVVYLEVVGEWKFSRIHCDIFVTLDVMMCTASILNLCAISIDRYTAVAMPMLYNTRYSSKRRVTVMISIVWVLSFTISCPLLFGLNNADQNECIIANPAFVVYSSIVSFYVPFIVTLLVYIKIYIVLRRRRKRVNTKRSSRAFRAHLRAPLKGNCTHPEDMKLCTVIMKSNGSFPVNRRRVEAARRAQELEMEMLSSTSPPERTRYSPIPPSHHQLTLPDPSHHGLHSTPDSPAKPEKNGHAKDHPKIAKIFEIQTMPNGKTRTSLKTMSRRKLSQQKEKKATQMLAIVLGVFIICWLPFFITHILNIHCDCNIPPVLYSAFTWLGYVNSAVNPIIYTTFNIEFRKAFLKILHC
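Agonist mode: compounds alone added to overnight-plated D2 PathHunter cells for 90 min at 37 C, with 57 uM final dopamine (EC100) defining full response. Beta-arrestin recruitment detected by chemiluminescent reagent, read after 1 h at ambient temperature.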
D2 potentiator = positive allosteric modulators of human D2 dopamine receptor. potentiation, % (concentration not given with the values). DiscoveRx D2 beta-arrestin cells, luminescence, 90 min; 100% = 57 uM dopamine signal. P14416. AID 624464. 360,000 tested, 0.23% active; active = potentiation of 50% or more; inconclusive = 30% to 50%; inactive = 30% or less;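 further: compound concentration not given in the record; tested on top of an EC20 dose of dopamine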
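D2 cells co-treated with compound plus 50 nM dopamine (EC20) for 90 min at 37 deg C to detect potentiation. Beta-arrestin recruitment was read as enzyme-fragment luminescence after 1 h at ambient temperature. Full response was set by 57 uM dopamine.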
TRPML1 agonist = activates the human TRPML1 channel. AID 624414. TRPML1-expressing cells, Ca2+ dye fluorescence, FDSS; host cell line not named in the record; reference of the full effect not given here. activation, % (concentration not given with the values). 410,000 tested, 0.12% active; in the data active = activation above about 50%; inconclusive = about 30% to 50%; inactive = below about 30%; further: 0% is about no effect; the text of the record puts the active cut at 80%
Target sequence (Q9GZU1 whole entry, looked up): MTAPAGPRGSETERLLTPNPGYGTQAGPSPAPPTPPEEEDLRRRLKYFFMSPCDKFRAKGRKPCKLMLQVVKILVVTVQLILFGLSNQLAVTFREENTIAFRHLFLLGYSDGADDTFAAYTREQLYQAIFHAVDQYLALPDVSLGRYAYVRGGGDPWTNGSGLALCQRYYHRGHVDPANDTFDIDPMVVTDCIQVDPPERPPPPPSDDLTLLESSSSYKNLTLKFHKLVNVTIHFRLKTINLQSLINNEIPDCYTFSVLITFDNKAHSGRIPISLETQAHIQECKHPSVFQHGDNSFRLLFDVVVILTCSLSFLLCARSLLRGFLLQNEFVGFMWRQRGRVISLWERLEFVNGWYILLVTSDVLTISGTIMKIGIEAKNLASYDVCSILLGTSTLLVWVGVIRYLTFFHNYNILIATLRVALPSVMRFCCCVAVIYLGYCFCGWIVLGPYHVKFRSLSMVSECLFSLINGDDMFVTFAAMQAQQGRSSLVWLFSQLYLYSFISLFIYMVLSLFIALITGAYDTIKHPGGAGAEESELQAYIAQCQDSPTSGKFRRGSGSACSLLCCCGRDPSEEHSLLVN
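TRPML1-DL cells, Tet-induced overnight (~16 h, 37 degrees C), loaded 45-90 min at room temperature with Ca8 no-wash calcium dye plus quencher. FDSS fluorescence: 10 s baseline, compound pin-transfer, 110 s agonist read, then EC80 54-4 (4uM final) and 110 s antagonist read.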
CtBP-E1A blk = CtBP/E1A binding inhibition | AlphaScreen GST-E1A/His-CtBP binding, 1536-well; active compounds read low; control for the full effect not named in the record | activity change, % (test concentration not listed) | 340,000 tested, 0.49% active; in the data active means activity change below about -65%; inconclusive means about -30% to -65%; inactive means above about -30%; further: on the % scale 0 is the no-effect control and ±100 the full control effect
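In 5 uL wells, 23 nL compound meets equimolar GST-E1A and His-CtBP (5X stock 125 nM each) for 2 h, 37 °C. Beads (5X, 50 ug/mL) then 1 h, 37 °C, dark.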
Six1-Eya2 inh = blocks human Six1 binding to Eya2. Q15475+O00167. AlphaScreen GST-Six1/His-Eya2 binding, biochemical; active compounds read low; control for the full effect not named in the record. activity change, % (concentration not given with the values). 360,000 tested, 0.56% active. AID 651725; in the data active = activity change below about -65%; inconclusive = about -30% to -65%; inactive = above about -30%; further: on the % scale 0 is the no-effect control and ±100 the full control effect
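Compounds are tested against tagged Six1 and Eya2 proteins bridged by glutathione donor and nickel acceptor beads; after a one-hour incubation at 37 °C without light, AlphaScreen emission is recorded.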
PINK1 expr mod = modulators of PINK1 expression | PINK1 immunofluorescence, high-content cytometry, 24 h | Potency, µM (doses to about 76.6 µM), inactives show at the highest dose activation (PINK1 increase), usual class: activators | 410,000 tested, 0.2% active; active = well fitted activation curve with a large enough effect; inconclusive = small, poorly fitted or top-dose-only effect; inactive = flat fitted curve, though single readings scatter; cell line not stated here;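 further: potency means the concentration at half of the fitted maximal effect; % of control where 0% means no effect; nearly all actives have a fitted effect of over 65% in size; a mitochondrial uncoupler was the plate control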
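PINK1 protein, normally rapidly degraded, was detected by immunofluorescence after 24 hour compound treatment of a stable cell line. Titration data (5 concentrations) came from laser-scanning cytometry, with CCCP-treated wells as controls.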
Starred values were filed as active, the others as inactive; ? = inconclusive; / = no result given; & = joins results of further samples; [ ] = remark or other dose. An unsorted share of the library; about 1.3% have a hit in one of these screens.

SMILES	D2 ag	D2 potentiator	TRPML1 agonist	CtBP-E1A blk	Six1-Eya2 inh	PINK1 expr mod
COc1ccc2[nH]c3c(c2c1)CCNC3C1CC=C(C)CC1 (stereo unspecified)	-4.4	-6	-0.3	-8	-16	9.5%
Cc1ccc(C2CC(c3ccco3)n3ncnc3N2)cc1 (stereo unspecified)	-4.4	-7	0.6	2	-1	1.5%
CCOc1ccc(N(CC(=O)NCc2ccccc2Cl)S(=O)(=O)c2c(C)noc2C)cc1	0.6	-6	5.3	-3	1	4.0%
CN(CC(=O)Nc1ccccc1Br)C(=O)c1ccccc1-c1nc2ccccc2s1	2.0	-11	1.0	-1	7	-1.1%
Cc1ccc(-n2ncc3c2CCCC3NC(=O)CCC2=NNC(=O)CC2)cc1C (stereo unspecified)	0.0	7	-0.1	3	2	0.3%
O=C(CNc1cc(S(=O)(=O)N2CCOCC2)ccc1N1CCCC1)N1CCc2ccccc21	-5.2	-8	-0.7	-8	-14	1.7%
CN(C(=O)c1cccc(NC(=O)Cc2cccc([N+](=O)[O-])c2)c1)C1CCCC1	0.0	-12	1.2	-22	?	2.3%
O=C(CCc1nnc(-c2ccc(-c3ccccc3)cc2)o1)N1CCCCC1	6.9	-6	1.1	1	2	-0.2%
Cc1ccc(N2C(=O)c3ccccc3C2C(=O)c2cc(C)ccc2O)cc1 (stereo unspecified)	-2.1	-2	3.2	10	4	?
Cc1ccc(C(=O)NC(=S)Nc2cccc3c(C)cc(C)nc23)cc1	-1.4	-15	0.7	-13	-2	5.8%
Nc1ccc(S(=O)(=O)c2ccccc2)nc1	12	2	-0.3	/	-5	1.9%
CC(=O)c1ccc(NC(=O)C2Cc3ccccc3CN2C(=O)c2ccccc2)cc1 (stereo unspecified)	0.2	-12	0.7	5	3	7.1%
O=C(Nc1ccccn1)C1CCCN1S(=O)(=O)c1ccc(Cl)cc1 (stereo unspecified)	-2.7	-16	0.2	1	12	1.2%
c1ccc2c(c1)C(=NC1CCCCC1)NC2=NC1CCCCC1	-3.9	-18	2.1	2	-9	?
O=C(CCc1c[nH]c2ccccc12)N1CCCC1	-2.6	-3	0.1	-1	-3	-0.1%

3 of these compounds, set out differently.
| smiles | D2 ag | D2 potentiator | TRPML1 agonist | CtBP-E1A blk | Six1-Eya2 inh | PINK1 expr mod |
| --- | --- | --- | --- | --- | --- | --- |
| Nc1ccc(S(=O)(=O)c2ccccc2)nc1 | 12 | 2 | -0.3 | / | -5 | 1.9% |
| O=C(CCc1nnc(-c2ccc(-c3ccccc3)cc2)o1)N1CCCCC1 | 6.9 | -6 | 1.1 | 1 | 2 | -0.2% |
| CC(=O)c1ccc(NC(=O)C2Cc3ccccc3CN2C(=O)c2ccccc2)cc1 (stereo unspecified) | 0.2 | -12 | 0.7 | 5 | 3 | 7.1% |

Following part
SMILES	D2 ag	D2 potentiator	TRPML1 agonist	CtBP-E1A blk	Six1-Eya2 inh	PINK1 expr mod
Cc1ccccc1/C=C1\CCCc2ccccc2C1=O	-2.2	-2	2.6	18	18	-1.5%
Cc1ccc(-c2nc(C#N)c(NCc3cccc4c3OCO4)o2)cc1	0.3	-5	3.5	-19	-14	-2.4%[38.3 µM]
O=C(O)c1cccc(-n2cccc2/C=C\[N+](=O)[O-])c1	-4.6	-4	-1.1	-9	-22	1.6%
CCCn1c(N)c(N(CCOC)C(=O)C(C)Oc2ccc(F)cc2)c(=O)[nH]c1=O (stereo unspecified)	-1.4	-2	-0.5	0	1	1.6%
Cc1ccc(N2C(=O)c3cccc4c(N)ccc(c34)C2=O)c2cccnc12	-1.1	-8	90*	2	7	40µM*
COC(=O)c1ccc(CSc2nc3ccccc3c(=O)n2Cc2ccco2)o1	0.6	3	2.5	6	-9	/
CCOC(=O)c1oc2ccccc2c1CN1CCCCC1	0.2	-12	4.1	-12	-10	-0.9%
COc1ccc(NC(=O)c2ccc3c(c2)CCN3S(=O)(=O)c2ccccc2)c(OC)c1	0.1	-6	0.5	/	-11	1.7%
CCOc1ccccc1NC(=O)CSC1=NN2CCCC(=O)N=C2S1	8.4	3	-0.6	4	-5	4.4%
COc1cccc(NC(=O)COC(=O)C2CCCCC2)c1	-1.5	-15	-0.3	/	19	2.0%
O=C(CCn1cncn1)N1CCCC(N2CCN(c3cccc(C(F)(F)F)c3)CC2)C1 (stereo unspecified)	-4.3	-14	-0.1	-8	2	3.2%
COc1ccc(C(=O)Nn2c(SCC(=O)N3CCC(C)CC3)nc3ccccc3c2=O)cc1	-2.3	-7	-0.5	-71*	?	21%[38.3 µM]
Cc1cc(C)c2c(CN3CCN(CCO)CC3)cc(=O)oc2c1	-3.7	-4	-0.5	1	0	-1.0%
CCOC(=O)CCCNC(=O)CCNC(=O)c1ccc(OCC)cc1	-0.2	2	0.6	3	2	-3.3%[38.3 µM]
CC(C)Sc1nc2ccc(Br)cc2[nH]1	-0.8	-3	1.7	7	2	4.1%
COc1cc2c(cc1OC)C(C)N(C(=O)CCN1C(=O)C3C4C=CC(C4)C3C1=O)CC2 (stereo unspecified)	-2.4	-10	1.6	-4	1	0.0%
COCCCNc1nc(SCc2ccccc2)nc2sc3c(c12)CCC3	-0.3	-9	1.2	-8	-8	2.2%
N#Cc1ccc(OCC(=O)N2CCN(C(=O)c3ccco3)CC2)cc1	-5.5	-9	-0.4	2	-2	0.1%
O=S(=O)(c1ccccc1)n1ccc2ccccc21	-2.7	-7	4.6	23	33	-0.6%
CCn1cc(Br)c(C(=O)Nc2cccc(Cl)c2)n1	-1.1	-3	1.3	0	24	0.5%[38.3 µM]
CCOc1ccc(N/C=C/C(=O)c2ccccc2)c([N+](=O)[O-])c1	1.4	-8	1.6	-4	-5	2.3%
O=C(Nc1nc2ccccc2[nH]1)C12CC3CC(CC(C3)C1)C2	-0.2	-9	0.6	-10	6	7.5%
Cc1ccc(N2C(=O)c3ccccc3C(C)(C)C2=O)cc1	-4.5	-25	-1.3	-2	-14	1.3%
O=C(C(=NNc1ccccc1)c1ccccc1)c1ccccc1	-3.4	-7	2.1	-29	?	12%
Cc1ccccc1CN1CCN(S(=O)(=O)c2cccs2)CC1	3.4	-3	0.8	/	7	0.9%
CCCOC(=O)c1ccc(Oc2cn[nH]c2-c2ccc(OC)cc2O)cc1	7.1	?	1.3	-6	6	12%
Cc1nn(Cc2ccc(Cl)cc2)c(C)c1NC(=O)c1noc2c1CCCCC2	2.3	-13	1.1	3	-4	14%[38.3 µM]
O=C(NCc1ccco1)c1ccccc1-c1ccccc1	-4.4	-9	-0.4	-1	-2	-4.3%
CC(=O)Nc1ccc2c(COC(=O)CC3Sc4ccccc4NC3=O)cc(=O)oc2c1 (stereo unspecified)	-3.1	-2	0.8	-20	19	?
O=C(COC(=O)[C@H](Cc1ccccc1)NC(=O)c1cccs1)Nc1cc(F)ccc1F	-5.0	-14	1.9	-1	-6	14%
COC(=O)c1c(N)c(C#N)c(C)n1-c1ccccc1	0.5	-6	1.1	0	-10	-1.0%
CC(C(=O)O)c1ccc(N2Cc3ccccc3C2=O)cc1 (stereo unspecified)	2.5	-8	-0.7	0	3	0.0%
N=c1ccn(Cc2c(Cl)cccc2Cl)cc1	0.6	-1	0.5	0	5	-0.2%
COc1ccc(NC(=O)[C@@H]2CC=C[C@@H]3CCN(C4CCCCC4)C(=O)[C@@H]32)cc1	-2.7	-8	1.8&-1.0	1	3	-0.9%
COC(=O)N/N=C\c1cc2c(cc1Br)OCO2	-5.6	-10	-0.2	-26	-12	-1.1%
CCOC(=O)c1ccc(Nc2nc(C)cc(C)n2)cc1	2.1	0	-0.5&2.3	/	1	2.9%&-1.6%
Nc1nnc(SCc2ccccc2Cl)s1	0.1	2	-0.2	6	6	-0.4%
CN(C)c1ncnc2c1NC1=C(S2)C(=NCCCC(=O)O)CC(C)(C)C1	4.7	?	0.0	3	-8	-0.7%
Cc1cccc(NC2=NCC(=O)N2CCc2ccccc2)c1	-4.9	-17	-0.7	-2	-1	2.3%
COc1ccc(C(O)P(=O)(O)CCc2ccccc2)cc1 (stereo unspecified)	2.2	-7	0.4	1	-2	-0.2%
Nc1ccccc1SCc1ccccc1Cl	-1.3	-9	1.6	9	18	9.3%
COc1ccccc1OCCOCCN1CCCC1	-4.3	-1	0.4	3	1	2.1%
CCN1CCN(CCCNC(=O)CNC(=O)c2nn(-c3ccc(OC)cc3OC)c(=O)c3ccccc23)CC1	-1.5	-5	0.0	4	19	0.5%
CCC/C(C)=N\Nc1nc2c(c(=O)n(C)c(=O)n2C)n1C	6.3	0	2.9	/	0	0.6%
CCS(=O)(=O)c1ccc2oc(Nc3ccc(C(C)(C)C)cc3)nc2c1	3.4	-12	-0.6	10	1	9.6%

Full records, looked up by structure. Order of screens: D2 ag | D2 potentiator | TRPML1 agonist | CtBP-E1A blk | Six1-Eya2 inh | PINK1 expr mod
COC(=O)c1c(N)c(C#N)c(C)n1-c1ccccc1 in the list: 0.5 | -6 | 1.1 | 0 | -10 | -1.0%
N=c1ccn(Cc2c(Cl)cccc2Cl)cc1 in the list: 0.6 | -1 | 0.5 | 0 | 5 | -0.2%

Later entries
SMILES	D2 ag	D2 potentiator	TRPML1 agonist	CtBP-E1A blk	Six1-Eya2 inh	PINK1 expr mod
COc1ccc(NC(=O)[C@H](Cc2c[nH]c3ccccc23)NC(=O)[C@@H]2Cc3ccccc3CN2)cc1	-3.4	-42	/	-3	-6	2.9%
CC1=C(C)CC2C(C1)C(=O)c1ccc(Br)cc1S2(=O)=O (stereo unspecified)	-7.9	-24	-0.6	4	5	4.8%
COc1ccc(C)cc1NC(=O)C(OC(=O)C1CC1)c1ccccc1 (stereo unspecified)	-2.9	-7	2.6	-19	16	-0.8%
Cc1nnc(SCC(=O)c2ccc(C(C)C)cc2)s1	-3.1	-5	0.2	-3	-7	0.7%
COc1ccccc1CNc1nc(C)c(C(C)=O)s1	1.7	-7	-0.3	2	5	1.7%
CCOc1ccc2nc(NCCNC(=O)Nc3cccc(C)c3)c(C#N)cc2c1	3.0	-2	0.1	13	10	-1.6%
Cc1cc(C)n2cc(CSc3nnnn3-c3ccccc3)nc2n1	0.7	9	3.3	7	1	-2.8%
CCOc1ccc(-c2nc(C)sc2CC(=O)O)cc1	-3.0	-13	-0.6	39	24	2.8%[38.3 µM]
O=C(NCCc1c[nH]c2ccccc12)c1ccc([N+](=O)[O-])cc1	-1.0	7	0.3	-2	-6	-0.6%
CC(C)C(NC(=O)c1cccs1)C(=O)NC1CCCCC1 (stereo unspecified)	-0.1	1	-0.2	0	1	2.1%
CC(=O)c1cc2c(cc1NC(=O)c1cc(C)nn1-c1ccccc1)OCO2	-4.7	-7	0.4	7	3	8.6%
CC12CCC(=O)N1C(C(=O)OCC(=O)Nc1cccc(S(=O)(=O)N3CCCCCC3)c1)CS2 (stereo unspecified)	-1.4	-12	0.2	-2	-2	-3.3%
CCC(C)N(C(=O)COC(=O)c1[nH]c(C)c(C(C)=O)c1C)C1CCS(=O)(=O)C1 (stereo unspecified)	-2.4	-20	-0.9	1	-9	-2.0%
Cc1ccc2c(c1)N(C(=O)CCC(=O)NCCCN1CC(C)CC(C)C1)CCO2 (stereo unspecified)	-3.0	-10	0.4	-8	-3	-0.1%
CN(CC(=O)Nc1cccc(F)c1)CC(=O)Nc1ccccc1[N+](=O)[O-]	-2.2	11	0.6	0	17	-0.7%
O=C(NCCCN1CCN(c2cccc(Cl)c2)CC1)c1ccc(N2CCCC2=O)cc1	2.6&15	-2	0.9	-21	-19	-2.1%
O=C(Cn1nnc(-c2ccccc2)n1)N1CCCCC1	4.4	-12	-1.1	4	4	-0.8%
